# gsp antagonist = antagonists of gsp mutant (McCune-Albright syndrome) | gsp-mutant cells, cAMP HTRF, 30 min; control for the full effect not named in the record | Potency, µM (series often up to 76.9 µM), for inactives: at the top dose activity change, negative = inhibition, usual class: inhibitors | actives 0.4% (n = 340,000) | AID 624288; active = falling curve of any shape with a large fitted effect; inconclusive = falling curve, mostly with a smaller effect; inactive = flat or rising curve; cell line not stated here;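 further: intracellular cAMP measured with PDE inhibitor Ro 20-1724 present during compound exposure; potency means the concentration at half of the fitted maximal effect; on the % scale 0 is the no-effect control and ±100 the full control effect; nearly all actives have a fitted effect of over 65% in size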
#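 HTRF cAMP measurement after 30 min RT detection following 30 min, 37C compound treatment alongside […] (added as 300 uM solution) in G418-selected cells seeded at 2000/well and grown 16–24 h.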
# TRPV1 PAM = potentiators of human vanilloid receptor 1 (TRPV1). Q8NER1. TRPV1-expressing cells, Fluo-8 calcium influx, capsaicin EC20 potentiation; host cell line not named in the record; control for the full effect not named in the record. potentiation, % at 8.33 µM. actives 0.02% (n = 320,000). AID 540277; active means potentiation above 80%; inconclusive means 30% to 80%; inactive means below 30%; further: 0% is about no effect
#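 TRPV1-expressing cells were cultured overnight at 35.5C and loaded with Fluo-8 calcium dye for 40 to 90 min at room temperature. After a 10 s baseline, compound was added and calcium influx was read kinetically for 3 min (ex 480/em 520 nm).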
# Menin-MLL FL inh = inhibitors of human menin-MLL interaction, wild-type MLL peptide | 290,000 tested, under 10 active | AID 1766 | Fluorescence polarization, fluorescein-MLL peptide displacement from menin | FP activity change, % at 61.4 µM; inconclusive = falling polarisation curve, or a change in total fluorescence; inactive = total fluorescence flat and polarisation flat or rising; no compound was filed as active; the % refers to the polarisation; negative = inhibition;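 further: % of control where 0% means no effect; inhibitors lower the polarisation; unlabelled MLL peptide was the positive control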
# gsp ag = activates gsp, the McCune-Albright syndrome mutation; actives 0.13% (n = 340,000); gsp mutant cells, cAMP HTRF, 30 min; control for the full effect not named in the record; AID 624287; Potency, µM (series often up to 76.9 µM), inactives show top-dose activation (cAMP increase), hits mostly activators; active = well fitted activation curve with a large enough effect; inconclusive = small, poorly fitted or top-dose-only effect, or another doubt; inactive = no such curve, though single readings can be large or run the other way; cell line not stated here;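 further: phosphodiesterase inhibitor Ro 20-1724 added with compounds to block cAMP breakdown; potency means the concentration at half of the fitted maximal effect; nearly all actives have a fitted effect of over 60% in size; about a fifth of the inactives were tested at one dose only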
#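 Cells stably selected in G418 were plated at 2000/well, grown 16-24 hr, then given compounds in DMSO with the PDE inhibitor […] (300 uM solution added) for 30 min at 37C; cAMP was read by HTRF.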
# TRPML1 inh = blocks the human TRPML1 channel. Q9GZU1. TRPML1-inducible cells, Ca2+ dye fluorescence, FDSS; stronger effect = lower value; inhibition of EC80 agonist-evoked calcium signal. activity change, negative = inhibition, % (no concentration beside the values). actives 0.02% (n = 390,000); in the data active means activity change below about -50%; inconclusive means about -30% to -50%; inactive means above about -30%;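 further: stimulus is agonist 54-4 at its EC80 concentration; on the % scale 0 is the no-effect control and ±100 the full control effect; compound concentration not given in the record; the text of the record puts the active cut at -80%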
# Target sequence (Q9GZU1 whole entry, looked up): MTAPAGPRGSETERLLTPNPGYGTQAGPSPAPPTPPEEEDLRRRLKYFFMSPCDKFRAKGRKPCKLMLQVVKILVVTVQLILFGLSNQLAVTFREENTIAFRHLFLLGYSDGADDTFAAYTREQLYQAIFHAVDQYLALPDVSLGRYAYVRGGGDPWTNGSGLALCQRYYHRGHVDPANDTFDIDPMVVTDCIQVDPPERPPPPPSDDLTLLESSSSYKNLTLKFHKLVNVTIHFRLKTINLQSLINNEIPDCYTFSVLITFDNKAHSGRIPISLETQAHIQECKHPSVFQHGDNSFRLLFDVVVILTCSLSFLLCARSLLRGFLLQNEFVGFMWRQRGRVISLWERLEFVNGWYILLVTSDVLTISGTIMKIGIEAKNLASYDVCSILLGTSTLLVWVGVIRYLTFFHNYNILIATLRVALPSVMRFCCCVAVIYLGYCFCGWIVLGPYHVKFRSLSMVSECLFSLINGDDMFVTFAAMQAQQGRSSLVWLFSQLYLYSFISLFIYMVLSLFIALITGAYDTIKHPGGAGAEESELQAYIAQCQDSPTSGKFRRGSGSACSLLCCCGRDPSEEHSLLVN
#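 TRPML1-DL cells, Tet-induced overnight (~16 h, 37 °C) at 1,500 cells/well, were loaded with Ca8 no-wash dye plus quencher for 45-90 min at room temperature. Compounds were pinned during FDSS kinetic reading; agonist 54-4 at EC80 (4 uM final) then added.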
# Sfp PPTase inh = inhibitors of Bacillus subtilis Sfp phosphopantetheinyl transferase. Q9F4F7. Biochemical Sfp PPTase activity, qHTS. Potency, µM, without a hit: max response, negative = inhibition, usual class: inhibitors. actives 3.5% (n = 310,000). AID 1490; active means well fitted inhibition curve with a large enough effect; inconclusive means small, poorly fitted or top-dose-only effect, or another doubt; inactive means no such curve, though single readings can be large or run the other way;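 further: the enzyme is Sfp with the accession as filed and its product quenches rhodamine fluorescence; potency means the concentration at half of the fitted maximal effect; 0% = enzyme reaction without inhibitor and -100% = no enzyme wells; top concentration of the series not given in the record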
#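 Compounds were incubated with enzyme (final 15 nM) for 15 min at room temperature before substrate addition started the reaction. Fluorescence at 525 nm excitation, 598 nm emission was recorded immediately and after 30 minutes.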
# ClpP mod = qHTS Assay for Activators of ClpP; ATP-dependent Clp protease proteolytic subunit (Bacillus subtilis (strain 168)), P80244; purified B. subtilis ClpP, FRET peptide cleavage, 20 min; Potency, µM (titrated, usually from 57.5 µM), without a hit: at the highest dose activity change, negative = active; actives 1.9% (n = 340,000); active = well fitted falling curve with a large enough effect; inconclusive = small, poorly fitted or top-dose-only effect; inactive = no such curve, though single readings can be large or run the other way; further: potency means the concentration at half of the fitted maximal effect; the source files actives as falling curves though it sought activators and does not explain the sign; nearly all actives have a fitted effect of over 65% in size; many hits overshoot -100%
# Target sequence (P80244 whole entry, looked up): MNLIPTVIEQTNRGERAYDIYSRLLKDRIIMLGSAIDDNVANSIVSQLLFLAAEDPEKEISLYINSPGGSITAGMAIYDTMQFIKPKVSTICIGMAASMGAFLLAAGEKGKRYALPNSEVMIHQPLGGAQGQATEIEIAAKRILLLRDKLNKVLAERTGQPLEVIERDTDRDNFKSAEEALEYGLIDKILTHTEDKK
#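 Purified B. subtilis ClpP, 10 microg/mL final in Tris/HCl pH8 with KCl, BSA, glycerol and Tween-20, cleaved an Abz/nitrotyrosine-quenched decapeptide. Fluorescence (ex 320, em 430) was read at 0 and 20 min at room temperature. Delta was normalized to 5.8 microM ADEP and DMSO/no-enzyme controls.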
# * = called active by the depositor; ? = inconclusive; · = no result given; [ ] = dose if it differs, or a comment.
SMILES,gsp antagonist,TRPV1 PAM,Menin-MLL FL inh,gsp ag,TRPML1 inh,Sfp PPTase inh,ClpP mod
Cc1csc(N2CCCC2c2nc3cc(Cl)c(N4CCCCC4)cc3n2CCCO)n1 (stereo not given),-17%,·,·,-3%,9,·,-2.3%
CCN(CCNC(=O)CS(=O)(=O)Cc1nc(-c2cccc(OC)c2)oc1C)c1ccccc1,-21%,4,-1.6,-46%[inhibitor],2,6%,-0.6%
C#CC(C)(C)NC(=O)CSc1nc2c(c(=O)n(C)c(=O)n2C)n1CCCC,-2%,·,-0.5,17%,-1,1%,1.2%
Cc1ccc(-c2nnc(CN3CCCCC3C)o2)cc1 (stereo not given),11%,-3,5.4,2%,·,6%,-3.6%
COCCNc1nc(-c2cc(C)n(CCc3ccc(OC)cc3)c2C)cs1,-9%,-9,?,?,36,40µM*,1.8%
COc1cccc(C(=O)Nc2ccc(N3CCN(C(=O)c4ccco4)CC3)cc2)c1,9%,-4,0.3,2%[15.4 µM],-12,-8%,0.3%
COc1ccc(N(CC(=O)NCCc2ccc(OC)c(OC)c2)S(=O)(=O)c2ccc(OC)c(OC)c2)cc1,-23%,1,·,-11%[15.4 µM],39,13%,·
CNS(=O)(=O)c1cccc(C(=O)OCC(=O)NCc2ccccc2)c1,-16%,2,3.8,25%,1,22%,-0.4%
O=C(NCCc1c[nH]c2ccccc12)Nc1cccc2ccccc12,15%,-11,-0.5,12%,5,14%,-21%
O=C(O)CNS(=O)(=O)c1cccc(Cl)c1,4%,11,3.4,?,·,4%,-0.7%
COc1cccc(CN2CCNC(=O)C2CC(=O)NCCOc2cccnc2)c1OC (stereo not given),10%,10,-10,-14%,11,3%,-0.8%
CC1=C(C(=O)OC2CCCC(C)C2)C(c2ccccc2)NC(=O)N1 (stereo not given),-16%,-8,0.3,-31%,-13,18%,-1.1%
COc1ccc(OCCCC(=O)Nc2nnc(C3CCCO3)s2)cc1 (stereo not given),10%,6,2.9,32%,-5,-2%,0.1%
COc1cccc(-n2c(CN3CCN(c4ccc(C)cc4)C(C)C3)nc3ccc([N+](=O)[O-])cc3c2=O)c1 (stereo not given),3%,17,4.6,-48%[inhibitor],-11,?,1.1%
CC(C)N(C(=O)NC(=O)NCC1CCCO1)S(C)(=O)=O (stereo not given),2%,?,2.7,-7%,-18,9%,-3.0%
CC1=NN(c2cccc([N+](=O)[O-])c2)C(=O)C1,·,3,-0.4,3%[15.4 µM],-15,14%,·
O=C(Cc1cccc(NC(=O)C2CCCN(C(=O)c3ccccc3)C2)c1)Nc1cccc(C(=O)N2CCOCC2)c1 (stereo not given),7%,·,·,·,43,·,1.0%
Cc1cc(-c2ccc(C)c(S(=O)(=O)NC(C)Cc3ccco3)c2)on1 (stereo not given),-14%,0,5.6,-15%,-21,7%,-2.7%
O=C(Cc1ccccc1)NC(CSSCC(NC(=O)Cc1ccccc1)C(=O)O)C(=O)O (stereo not given),4%,·,·,14%,-1,·,·
Cc1ccccc1OCC(=O)NNC(=O)CCN1C(=O)c2ccccc2C1=O,11%,6,-2.1,-1%,-1,18%,·
COc1ccc2[nH]cc(CCN=C3SCC(=O)N3C)c2c1,2%,-1,3.8,4%,11,8%,-4.7%
Cc1cccc(NC(=O)c2cccnc2)c1,8%,-1,0.8,?,5,8%,-1.6%
C=C(C)C(=O)Nc1ccc(OC(F)(F)C(F)F)c(NC(=O)C(=C)C)c1,-1%,-19,1.3,-33%,-2,2%,-2.6%
COc1ccc(Nc2ccc(S(=O)(=O)N3CCCCC3)cc2[N+](=O)[O-])cc1,-1%,13,0.1,-1%,4,-1%,-2.2%
COc1ccc2c(c1)OC13CCCCC1C2C(C(=O)c1ccccc1)C(=O)N3 (stereo not given),5%,23,0.5,9%,-9,27%,1.7%
Cc1ccc(NC2CNC(=O)NC2=O)cc1C (stereo not given),3%,·,·,-63%[inhibitor],-4,·,·
CCCc1cc(=O)oc2cc(C)cc(OCC(=O)NCc3ccncc3)c12,-1%,-9,2.7,-1%,8,21%,4.1%
O=C(NCCCn1ccnc1)c1nn2c(C(F)(F)F)cc(-c3ccc(Br)cc3)nc2c1Cl,2%,-11,-0.3,3%[15.4 µM],29,1.1µM*,-2.7%
C=CCN(N=Nc1cccc([N+](=O)[O-])c1)c1cccc([N+](=O)[O-])c1,-4%,-7,0.3,2%,49,-10%,-0.2%
Cc1c(NC(=O)COc2cccc(Cl)c2Cl)c(=O)n(-c2ccccc2)n1C,-11%,8,·,26%,-6,·,-1.6%
CC1CCc2nn(CC(=O)NCCN3CCOCC3)cc2C1 (stereo not given),11%,22,0.5,?,5,12%,2.4%
Cc1ccc(C2NC(=O)c3c(sc(C)c3C)N2)c(O)c1 (stereo not given),-8%,6,9.2,12%,-9,50µM*,?
Cc1ccc(/C=N/NC(=O)CN2CCN(S(=O)(=O)c3ccc(Br)cc3)CC2)s1,-16%,16,0.1,-2%,-6,2%,-1.3%
CCN(C(=O)COC(=O)COc1ccccc1Cl)c1c(N)n(Cc2ccccc2)c(=O)[nH]c1=O,0%,-3,·,24%,0,·,-1.2%
N#Cc1ccccc1NC(=O)C1CC(=O)N(c2ccc3c4c(cccc24)CC3)C1 (stereo not given),7%,-3,-1.1,0%[15.4 µM],4,-4%,·
CCn1c(SCC(=O)Nc2ccc3c(c2)OCO3)nc2ccccc21,-16%,6,3.2,-16%,-3,-16%,-0.1%
CCOC(=O)c1nnn(-c2nc(N(C)C)nc(N(C)C)n2)c1C,9%,27,2.3,1%[15.4 µM],3,-3%,·
O=C(O)Cc1ccc(NS(=O)(=O)c2ccccc2Cl)cc1,6%,7,3.6,8%[15.4 µM],-10,-27%,·
CC1=CC(=C2C(=O)c3ccccc3C2=O)C=C(C)N1C,-6%,4,1.3,-12%[15.4 µM],-10,18%,-1.4%
COc1ccc(C2/C(=C(/O)c3ccccc3)C(=O)C(=O)N2CCO)cc1 (stereo not given),0%,10,-2.9,14%,-4,13%,-1.8%
NC(=O)NC[C@@H]1CC[C@@H](Cc2ccc(-c3ccccc3)cc2)O1,-1%,·,·,·,4,·,2.2%
CCOc1ccc(C(=O)Nc2cccc(C(C)=O)c2)cc1[N+](=O)[O-],-5%,-30,-2.7,47%,-18,-6%,·
S=c1[nH]nc(-c2cccc(Cl)c2)n1/N=C/c1ccco1,-19%,16,6.9,6%[15.4 µM],29,50µM*,-1.9%
COc1ccc([C@H]2C[C@@H](O)[C@H](n3cc(C4CC4)nn3)CN2C(=O)C2CCCCC2)cc1,·,·,·,?,-7,·,-2.4%
CC(C)(C)NC(=O)N1CCn2cccc2C1c1ccccc1F (stereo not given),-7%,5,-2.8,-4%,-8,5%,·
N#Cc1c(NC(=O)COC(=O)C2=COCCO2)sc2c1CCCC2,·,·,·,?,-2,·,-2.8%
O=C(Nc1ccc2c(c1)OCO2)C(=O)c1c[nH]c2ccccc12,10%,1,·,-11%,11,7%,2.4%
COC(=O)[C@@]12CCCCN1[C@H](c1ccc(SC3CCCCC3)c(OC)c1)[C@@H]1C(=O)N(C)C(=O)[C@@H]12,-13%,-5,·,?,22,·,2.7%
CC(=O)N1CCN(C(=O)COC(=O)CNC(=O)c2ccccc2C)CC1,6%,-9,·,-1%[15.4 µM],-9,·,1.0%
Cc1noc(NS(=O)(=O)c2ccc(NC(=O)c3ccoc3C)cc2)c1C,6%,19,1.3,25%,-15,-16%,1.9%
CCN(CC)CCn1c2ccccc2c2nc3ccc([N+](=O)[O-])cc3cc21,-4%,-3,2.7,?,-12,3%,·
Cc1ccccc1-c1nnc(SCC(=O)Nc2ccc3c(c2)OCCO3)n1N,5%,4,4.3,-11%,3,13%,-0.1%
CCOC(=O)c1sc(NC(=S)NC(=O)c2ccccc2Cl)c(C(=O)OCC)c1C,2%,3,1.9,-4%[15.4 µM],-10,11%,0.1%
Cc1ccc(N=Nc2c(O)c3ccccc3[nH]c2=O)c(S(=O)(=O)N(C)C)c1,·,14,0.8,·,·,-7%,·
COc1ccc(OC)c(N(CC(=O)O)S(=O)(=O)c2ccc(OC)c(OC)c2)c1,0%,0,-2.3,-15%,-2,-3%,1.0%
CCOc1ccc(OCC)c(NC(=O)CSc2nc3cccnc3n2C)c1,-6%,-1,5.1,27%,-16,10%,-1.1%
CSc1ccccc1OCc1cc(C(=O)N2CCCC2c2nonc2C)no1 (stereo not given),-9%,9,·,21%,16,13%,-1.6%
Cc1cc(C(=O)O)ccc1-c1ccc(/C=N/n2cnnc2)o1,-2%,-4,-3.6,-1%,11,-7%,3.6%

# A different layout for 4 compounds above:
COc1ccc(C2/C(=C(/O)c3ccccc3)C(=O)C(=O)N2CCO)cc1 (stereo not given)
  gsp antagonist: 0%
  TRPV1 PAM: 10
  Menin-MLL FL inh: -2.9
  gsp ag: 14%
  TRPML1 inh: -4
  Sfp PPTase inh: 13%
  ClpP mod: -1.8%

NC(=O)NC[C@@H]1CC[C@@H](Cc2ccc(-c3ccccc3)cc2)O1
  gsp antagonist: -1%
  TRPV1 PAM: ·
  Menin-MLL FL inh: ·
  gsp ag: ·
  TRPML1 inh: 4
  Sfp PPTase inh: ·
  ClpP mod: 2.2%

CCOc1ccc(C(=O)Nc2cccc(C(C)=O)c2)cc1[N+](=O)[O-]
  gsp antagonist: -5%
  TRPV1 PAM: -30
  Menin-MLL FL inh: -2.7
  gsp ag: 47%
  TRPML1 inh: -18
  Sfp PPTase inh: -6%
  ClpP mod: ·

S=c1[nH]nc(-c2cccc(Cl)c2)n1/N=C/c1ccco1
  gsp antagonist: -19%
  TRPV1 PAM: 16
  Menin-MLL FL inh: 6.9
  gsp ag: 6%[15.4 µM]
  TRPML1 inh: 29
  Sfp PPTase inh: 50µM*
  ClpP mod: -1.9%

# Compound activity as filed in PubChem.
